Assay outcomes from PubChem BioAssay.
Beta2AR agonist: agonists of human beta-2 adrenergic receptor inducing internalization. P07550. Am2.2-beta2AR cells, FAP receptor internalization, flow cytometry; reference of the scale not given here. response, % (test concentration not listed). hit rate 0.43% among 340,000. AID 504454;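 active means response above a set limit, near 3 SD of response in nonfluorescent compounds, cut at about 42% in these data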;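 further: stock transfer was 100 nL into about 11 µL; a reference agonist was the positive control; negative values mostly stem from fluorescent compounds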
Target sequence (P07550 whole entry, looked up): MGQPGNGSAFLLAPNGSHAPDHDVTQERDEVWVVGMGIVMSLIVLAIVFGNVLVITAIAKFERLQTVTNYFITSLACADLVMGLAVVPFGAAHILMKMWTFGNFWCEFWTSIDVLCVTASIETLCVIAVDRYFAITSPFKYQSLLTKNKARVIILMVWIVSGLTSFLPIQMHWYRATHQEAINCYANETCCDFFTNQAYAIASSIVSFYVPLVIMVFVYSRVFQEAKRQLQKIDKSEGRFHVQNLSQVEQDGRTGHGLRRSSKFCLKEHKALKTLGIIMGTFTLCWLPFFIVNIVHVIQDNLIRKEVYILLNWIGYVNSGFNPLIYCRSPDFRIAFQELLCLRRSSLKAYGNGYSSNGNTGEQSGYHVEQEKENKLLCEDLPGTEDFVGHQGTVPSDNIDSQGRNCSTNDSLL
FGF22 binding: binders of recombinant human FGF22 by thermal shift | hit rate 1.5% among 340,000 | SYPRO orange fluorescence; percent of sucrose octasulfate shift, DMSO zero | calls only at 9.99 µM;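 active means melting point raised past a set limit in the mean and every replicate; three in four hits are not shown here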
Ecoli growth: E. coli growth inhibition; Escherichia coli growth, OD600, 23 h; hits give low values; OD600 absorbance (concentration not given with the values); hit rate 0.21% among 330,000;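 active means OD600 absorbance below the run mean of sample wells minus 3.6 SD, in any replicate, cut at about 0.56 in these data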;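 further: stock transfer was 300 nL into about 60 µL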
ALR H2O2 inh: blocks human ALR sulfhydryl oxidase activity; P55789; purified ALR, DTT oxidation, H2O2 HRP-luminol luminescence; inhibition, % (concentration not given with the values); hit rate 3.8% among 290,000;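 active means mean and each replicate at 75% or more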;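 further: stock transfer was 7.5 nL into about 7.5 µL; 0% = neutral wells and 100% = wells with inactivated enzyme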
Target sequence (P55789 whole entry, looked up): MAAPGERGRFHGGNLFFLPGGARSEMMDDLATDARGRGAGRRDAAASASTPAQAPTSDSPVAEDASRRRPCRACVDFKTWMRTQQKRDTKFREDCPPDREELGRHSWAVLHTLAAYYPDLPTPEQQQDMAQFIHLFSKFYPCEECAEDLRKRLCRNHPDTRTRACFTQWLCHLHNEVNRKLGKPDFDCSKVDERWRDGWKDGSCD
UCH37 DUB inh: blocks the human deubiquitinase UCH37 | inhibition, % (test concentration not listed) | Q9Y5K5 | hit rate 0.33% among 330,000 | purified proteasome/UCH37, Ub-AMC cleavage fluorescence;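 active means mean of two replicates above 20%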;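 further: 0% = compound-free wells with enzyme and 100% = wells lacking proteasome; stock transfer was 100 nL into about 20 µL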
Target sequence (Q9Y5K5 whole entry, looked up): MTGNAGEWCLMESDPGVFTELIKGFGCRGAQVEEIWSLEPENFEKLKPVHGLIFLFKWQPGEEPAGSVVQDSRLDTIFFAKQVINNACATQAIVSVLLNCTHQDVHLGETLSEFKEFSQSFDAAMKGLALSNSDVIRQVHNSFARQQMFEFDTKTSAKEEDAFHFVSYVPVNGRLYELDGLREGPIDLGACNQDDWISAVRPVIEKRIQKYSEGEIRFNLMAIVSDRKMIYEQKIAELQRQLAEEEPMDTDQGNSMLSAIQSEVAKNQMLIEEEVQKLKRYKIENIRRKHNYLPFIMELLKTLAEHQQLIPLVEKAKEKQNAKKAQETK
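Schedule: 30 min plus 25 min, room temperature / Material: human UCH37 within purified proteasomes / Technique: AMC fluorescence intensity at 355/460 nm / Buffer or medium: pH 7.4 Tris-HCl (50 mM) with ovalbumin, ATP-MgCl2, DTT / Controls: wells without proteasome as full block, compound-free enzyme plus substrate as uninhibited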
HNF4A DNA FP: change in binding of human HNF4 alpha to DNA; HNF4a-FITC DNA binding, fluorescence polarization, 1 h; hit rate 0.3% among 360,000; AID 1224865; activity change, % at 10 µM; in the data active means activity change above about 30%, passing the limit was not always enough;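 further: controls were the assay level and a saturating level of protein; the project sought stronger binding though the title names inhibitors; some compounds called inactive have numbers as strong as hits; positive values seem to mean higher polarization but the record does not say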
* marks the source's active call; other numbers are inactive results; i = inactive; · = no result given.

SMILES	Beta2AR agonist	FGF22 binding	Ecoli growth	ALR H2O2 inh	UCH37 DUB inh	HNF4A DNA FP
COc1cc(C(=O)NN=C(C)Cc2ccccc2)cc(OC)c1OC	·	·	0.7	·	1.6	·
CC(CC(=O)Nc1ccc(N(C)C)cc1)=NNC(=O)c1ccccc1F	·	·	0.67	·	1.3	·
Cc1cc(C)nc(SCc2ccc(C(=O)NN=Cc3ccco3)cc2)n1	·	·	0.62	·	3.4	·
Cc1cc2ccccn2c1C(=O)c1ccc(NN=Cc2ccc(C(=O)O)cc2)c([N+](=O)[O-])c1	·	·	0.73	·	13	·
O=C(NN=Cc1ccc(O)c(O)c1)c1cc(-c2ccccc2)nc2ccccc12	·	·	0.65	·	-0.9	·
Cn1cc(C(=O)NN=CC2=C(N3CCOCC3)/C(=C/c3ccc([N+](=O)[O-])cc3)CC2)ccc1=O	·	·	0.68	·	1.8	·
Oc1ccc(C=NNc2ccc(Cl)nn2)cc1O	·	·	0.65	·	12	·
CC1=NNC(=O)C1CCC(=O)NN=Cc1ccc(C)cc1 (stereo not drawn)	·	·	0.65	·	3.9	·
Nc1ncnc2c1ncn2C1OC(CO)CC1O (stereo not drawn)	·	i	0.68	·	·	·
Nc1ccc(C(=O)N/N=C\c2cc(N=Nc3cccc4ccccc34)ccc2O)cc1	·	·	·	-6	·	3.3
CCCCCCc1cc2cc(-c3nnc(-c4ccccc4)o3)c(=O)oc2cc1O	·	·	·	1	·	60
CO/N=C(/C(=O)N[C@@H]1C(=O)N2C(C(=O)O)=CCS[C@H]12)c1cnc(N)s1	·	·	·	-1	·	-78
CC(=O)NC1CCCN(O)C(=O)/C=C(\C)CCOC(=O)C(NC(C)=O)CCCN(O)C(=O)/C=C(\C)CCOC(=O)C(NC(C)=O)CCCN(O)C(=O)/C=C(\C)CCOC1=O (stereo not drawn)	·	·	·	5	·	0.2
COc1ccc(C(=O)O/N=C(\C)c2ccccc2)cc1	·	·	·	-4	·	0.6
CC1C/C(=N/N=C2/NC(=O)CS2)CC(C)(C)C1 (stereo not drawn)	-6	·	·	·	·	-0.3
CCc1c(C(=O)N/N=C/c2ccsc2)csc1C	-9	·	·	·	·	1.6
CCN(CC)c1ccc(/C=N/NS(=O)(=O)c2cccc([N+](=O)[O-])c2)cc1	1	·	·	·	·	-2.3
CCCn1c(=C(C#N)C#N)s/c(=C2\C=Cc3ccccc3N2CC)c1=O	3	·	·	·	·	-14
O=C(N/N=C/c1nn(-c2ccccc2)cc1-c1ccccc1)c1ccncc1	-16	·	·	·	·	-2.5
Clc1ccc(/C=N/NC2=Nc3cccc4cccc2c34)cc1	2	·	·	·	·	22
CCOc1ccc2[nH]c(=O)c(CN(CCO)C(c3nnnn3C3CCCCC3)C(C)C)cc2c1 (stereo not drawn)	0	·	·	·	·	-0.1
C/C(=N\NC(=O)CNc1cccc(C(F)(F)F)c1)c1cccc(Br)c1	-10	·	·	·	·	-3.0
COC(=O)c1nn(-c2ccccc2)c(Sc2ccc(C)cc2)c1/C=N/O	-13	·	·	·	·	-0.3
CC(NCc1ccccc1Cl)C(=O)Nc1ccc(S(=O)(=O)N2CCCC2)cc1 (stereo not drawn)	-9	·	·	·	·	-0.6
Clc1ccc(/C=N/Nc2nc(Cl)nc3ccccc23)cc1	7	·	·	·	·	1.1
(more compounds)
SMILES	Beta2AR agonist	FGF22 binding	Ecoli growth	ALR H2O2 inh	UCH37 DUB inh	HNF4A DNA FP
O=C1NC(CCc2ccccc2)C(=O)N1Cc1ccccc1Cl (stereo not drawn)	-9	·	·	·	·	-1.5
Oc1ccccc1/C=N/Nc1nccnc1Cl	0	·	·	·	·	-7.7
Cc1cccc(NC2=C/C(=N/S(=O)(=O)c3cccs3)c3ccccc3C2=O)c1	21	·	·	·	·	-2.5
O=C(NNC(=O)c1cc(Br)ccc1O)c1csc(N2CCOCC2)n1	-12	·	·	·	·	-1.5
O=C(N/N=C1\CCCc2ccccc21)c1ccc([N+](=O)[O-])cc1Cl	1	·	·	·	·	-1.8
O=C(O)c1cccc(N/N=C/c2sc(N3CCOCC3)nc2-c2ccccc2)c1	-4	·	·	·	·	-1.0
Oc1ccccc1/C=N/n1cnnc1	-2	·	·	·	·	-2.5
O=c1oc2c(CN3CCOCC3)c(O)c(Cl)cc2c2c1CCC2	-16	·	·	·	·	-2.1
Clc1ccc(-c2ccc(/C=N/Nc3nncc(-c4ccccc4)n3)o2)cc1	16	·	·	·	·	-1.7
C=C(C)CNC(=S)N/N=C/C1=CCC2CC1C2(C)C (stereo not drawn)	1	·	·	·	·	3.8
CSc1cc(/C=N/O)c(SC)s1	-2	·	·	·	·	-0.2
CC(C)COc1ccc(CNC(=S)N/N=C/c2ccc([N+](=O)[O-])cc2)cc1	-8	·	·	·	·	-1.2
O=C(OC(C(=O)Nc1ccc(Cl)c(C(F)(F)F)c1)c1ccccc1)C1=COCCO1 (stereo not drawn)	-6	·	·	·	·	-3.3
C(=N\Nc1ccc(-n2ccnc2)nn1)/c1ccccc1	10	·	·	·	·	0.5
CCCOc1c(Br)cc(/C=N/O)cc1OC	9	·	·	·	·	-2.8
COc1ccc2c(c1)c(C(=O)N/N=C/c1ccc(OC)c(OC)c1)c(C)n2C	-12	·	·	·	·	1.3
Cc1nn(-c2ccccc2)c(N2CCCC2)c1/C=N/NC(=O)c1cc(-c2cccnc2)nc2ccccc12	16	·	·	·	·	4.0
NC(=O)CN1C(=O)C(O)(CC(=O)/C=C\C=C\c2ccccc2)c2ccccc21 (stereo not drawn)	-3	·	·	·	·	1.4
COC(=O)c1ccc(CCc2cc(O)ccc2O)cc1	-8	·	·	·	·	-1.1
O=C(N/N=C/C=C/c1ccco1)c1cccc([N+](=O)[O-])c1	-6	·	·	·	·	-11
O=C(Nc1cccc(Cl)c1)c1ccc2c(=O)n3c(nc2c1)CCCCC3	5	·	·	·	·	3.6
Cc1ccc2c(n1)CC(C)(C)C/C2=N\O	-4	·	·	·	·	0.1
O=C(NCc1ccccn1)c1ccc(/C=N/O)nc1	-1	·	·	·	·	-1.3
CC(C)(C)n1nnnc1CN1CCN2CCCC2C1 (stereo not drawn)	1	·	·	·	·	-2.6
N/C(=N\O)c1ccc(NC(=O)c2cccs2)cc1	-7	·	·	·	·	0.1
The listing continues.
SMILES	Beta2AR agonist	FGF22 binding	Ecoli growth	ALR H2O2 inh	UCH37 DUB inh	HNF4A DNA FP
Cc1ccc(-c2nnc(SCC(=O)N/N=C/c3ccc(C)s3)n2-c2ccc(C)cc2)cc1	9	·	·	·	·	-2.7
Cc1cc(C)nc(N/N=C/c2ccccc2OCc2ccc(Cl)cc2)n1	8	·	·	·	·	-0.7
NC(N)=N/N=C/c1cc([N+](=O)[O-])ccc1O	-6	·	·	·	·	2.7
O=C(CSCc1ccccc1Br)N/N=C/c1ccc(OCC(=O)N2CCCCC2)cc1	-4	·	·	·	·	1.9
CN1CCN(/N=C/c2nc(-c3ccccc3)n3ccccc23)CC1	-4	·	·	·	·	0.3
Cc1ccc(N/N=C(\C#N)C(N)=S)c(C)c1	12	·	·	·	·	-2.5
Cc1[nH]c2ccccc2c1/C=C/c1cc[n+](C)cc1	-429	·	·	·	·	144
O=C(Cn1cnc2ccccc21)N/N=C/C(Br)=C/c1ccccc1	1	·	·	·	·	-4.0
Cc1ccc(S(=O)(=O)NCCC(=O)N2CCN(c3ccccc3)CC2)cc1C	-2	·	·	·	·	7.7
C=CC(=O)Nc1cccc(Nc2nc(N[C@H]3CC[C@H](N(C)C)CC3)nc3c2ncn3C(C)C)c1	3	·	·	·	·	40
C=CC(=O)Nc1cccc(Oc2ccnc3[nH]ccc23)c1	1	·	·	·	·	174
Cc1nnc(C)n1/N=C/c1ccc2c(c1)OCCO2	-2	·	·	·	·	-2.5
O=C(COc1ccccc1[N+](=O)[O-])N/N=C/c1ccc(O)cc1	-3	·	·	·	·	-4.0
CCC(C)C1/C=C\CC(NC(=O)OCC2c3ccccc3-c3ccccc32)CC(=O)N1Cc1ccccc1 (stereo not drawn)	3	·	·	·	·	-0.5
CC(=O)Nc1c(O)nc(SCc2ccc(Cl)cc2)[nH]c1=O	5	·	·	·	·	1.6
COCc1cc(C)nc(N/N=C/c2ccc(-c3ccc(Cl)cc3[N+](=O)[O-])o2)c1C#N	6	·	·	·	·	-0.8
COC(=O)c1ccc(/C=N/NC(=O)CC(=O)NCC(C)C)cc1	0	·	·	·	·	-2.2
Cc1cccc(-n2cnc(C(=O)N/N=C\c3ccc(Br)cc3)c2)n1	1	·	·	·	·	2.9
O=C(CNS(=O)(=O)c1ccccc1)N/N=C\c1ccc(Cl)cc1	-5	·	·	·	·	3.0
CC(C)Oc1ccc(/C=N/NC(N)=S)cc1	-5	·	·	·	·	-0.8
COc1cccc(/C=N/NC(=O)c2csc(-n3nc(C)cc3C(F)(F)F)n2)c1	-29	·	·	·	·	2.6
COc1ccc(F)cc1S(=O)(=O)NCc1ccccc1	1	·	·	·	·	1.0
CSc1ccc(/C=N/NC(=O)CN2CCN(Cc3ccc(C)cc3)CC2)cc1	-10	·	·	·	·	-1.2
CCN1C(=O)C(C)S/C1=N\S(=O)(=O)c1ccc(F)cc1 (stereo not drawn)	2	·	·	·	·	2.4
CC/C(=N/Nc1ccc(Cl)cc1)c1cnnc(SC)n1	-8	·	·	·	·	2.1
Additional entries follow.
SMILES	Beta2AR agonist	FGF22 binding	Ecoli growth	ALR H2O2 inh	UCH37 DUB inh	HNF4A DNA FP
O=C(CSc1ccc(/C=N/NC(=O)c2cccc(F)c2)o1)Nc1ccccc1	7	·	·	·	·	2.2
COCCCNC(=O)c1c(N)n(/N=C/c2ccccn2)c2nc3ccccc3nc12	7	·	·	·	·	7.7
COc1ccc(/C=N/NC(=O)c2cccc([N+](=O)[O-])c2)cc1OC(=O)c1ccccc1	5	·	·	·	·	-2.3
CCC(CC)NC(=O)COC(=O)c1ccc(NS(=O)(=O)c2ccc3c(c2)OCCO3)cc1	-23	·	·	·	·	0.8
O=[N+]([O-])c1ccc(Cl)c(/C=N/N2CCN(C3c4ccccc4-c4ccccc43)CC2)c1	0	·	·	·	·	-0.6
CC(=O)Nc1cccc(/C(C)=N/NC(=O)c2cccs2)c1	-4	·	·	·	·	2.4
Cc1ccc(NCC(=O)N/N=C/c2cccc(Oc3ccccc3)c2)cc1	7	·	·	·	·	-0.3
O=C(O)c1ccc(N/N=C/c2cccc(F)c2)cc1	7	·	·	·	·	-1.3
Cc1ccc(N/C(CSC(N)=O)=N\S(=O)(=O)c2ccc(C)cc2)cc1	5	·	·	·	·	-1.1

This is a subset, so the mix of outcomes need not match the whole.
